Compound activity from PubChem.
MLL AF4-AF9 inh – inhibitors of AF4 peptide binding to AF9, primary screen, biochemical, AlphaScreen, biotin-AF4 peptide, FLAG-AF9, single point; inhibition, % at 10 µM; 350,000 tested, 0.47% active;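 active = every replicate reaching a set inhibition limit, whatever the replicate mean, cut at about 25% in these data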;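 note: 0% = plate neutral control median and 100% = total signal loss; the record names both 10 and 1 µM as test concentration; the first replicate is given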
Target sequence (P42568 whole entry, looked up): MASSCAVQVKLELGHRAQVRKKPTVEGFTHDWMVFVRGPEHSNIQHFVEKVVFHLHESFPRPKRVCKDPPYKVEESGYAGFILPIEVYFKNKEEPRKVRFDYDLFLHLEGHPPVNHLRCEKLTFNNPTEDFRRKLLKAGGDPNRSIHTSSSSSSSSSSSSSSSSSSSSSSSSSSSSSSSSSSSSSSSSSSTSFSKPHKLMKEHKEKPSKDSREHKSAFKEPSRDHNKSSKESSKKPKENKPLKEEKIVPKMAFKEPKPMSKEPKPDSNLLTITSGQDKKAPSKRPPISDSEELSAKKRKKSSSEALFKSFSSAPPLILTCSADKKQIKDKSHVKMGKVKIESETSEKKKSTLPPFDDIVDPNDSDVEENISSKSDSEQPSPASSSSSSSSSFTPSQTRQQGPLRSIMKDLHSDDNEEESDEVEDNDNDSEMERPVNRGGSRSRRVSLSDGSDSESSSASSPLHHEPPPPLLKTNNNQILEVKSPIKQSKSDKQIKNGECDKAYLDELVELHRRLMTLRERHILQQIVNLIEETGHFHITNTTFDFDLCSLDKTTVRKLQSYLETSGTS
rRNA inh HTS – reduced GFP signal of wild-type E. coli, primary screen, bacterial rRNA inhibitor project, GFP/RFP fluorescence, OD600, single point | E. coli WT GFP vs humanized-ribosome RFP mutants, 24 h; active compounds read low; DMSO median 0, no signal -100 | GFP signal change (wild-type ribosome), % (test concentration not listed) | 350,000 tested, 1.6% active | AID 720706, 2013;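 active = significant combined selectivity score with lowered wild-type GFP, culture density cut under 30%, mutant RFP and density less affected; inactive = any of these conditions unmet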; note: one replicate is shown; some compounds called inactive have numbers as strong as hits
FGF22 binding – binders of human FGF22 protein, primary screen, FGF22 synaptogenesis inhibitor project, biophysical, thermal shift, single point; recombinant FGF22 thermal shift, SYPRO orange fluorescence; percent of sucrose octasulfate shift, DMSO zero; calls only at 9.99 µM; 340,000 tested, 1.5% active; AID 651658, 2012;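 active = melting point raised past a set limit in the mean and every replicate; three in four hits are not shown here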
Target sequence (Q9HCT0 whole entry, looked up): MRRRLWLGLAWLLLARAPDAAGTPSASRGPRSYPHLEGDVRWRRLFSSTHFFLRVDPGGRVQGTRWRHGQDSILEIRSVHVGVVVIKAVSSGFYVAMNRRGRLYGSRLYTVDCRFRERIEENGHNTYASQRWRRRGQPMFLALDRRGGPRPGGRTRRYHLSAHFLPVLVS
rRNA inh HTS OD600 – also measured in rRNA inh HTS; calls as there; OD600 change, %; measured here: OD600 growth;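 optical density of the mix in the first replicate; 0 = DMSO median and -100 = no signal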
rRNA inh HTS RFP – further read-out of rRNA inh HTS, marked with its call; RFP signal change, %; measured here: RFP humanized mutant strains;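 first replicate; 0 = DMSO median and -100 = no signal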
* marks the source's active call; other numbers are inactive results; i = inactive; + = active, no number; & = joins results of further samples. This is a subset; the hit share may differ from the screen's.

SMILES	MLL AF4-AF9 inh	rRNA inh HTS	rRNA inh HTS OD600	rRNA inh HTS RFP	FGF22 binding
COc1cccc(-c2ccc3n(c2=O)C[C@@H]2[C@@H](CO)[C@H](C(=O)NC4CCC4)N(S(C)(=O)=O)[C@H]32)c1	-0.7	0	-1	-0.9	i
CC(=O)N(C)C[C@@H]1Oc2ncc(-c3ccc(C)cc3)cc2C(=O)N([C@H](C)CO)C[C@@H]1C	-3.7	7	14	-3.4	i
CC(C)NC(=O)Nc1cccc2c1O[C@H](CN(C)Cc1ccc(C(=O)Nc3ccccc3N)cc1)[C@H](C)CN([C@H](C)CO)C2=O	0.4	-2	-7	-3.6	i
CCN(c1ccccc1)S(=O)(=O)c1cccc(C(=O)NCC(c2ccc(F)cc2)N2CCOCC2)c1 (configuration not stated)	17	-25*	-20*	-6.4*	i
Cc1noc(C)c1S(=O)(=O)N(C)C[C@@H]1Oc2c(NC(=O)c3cnccn3)cccc2C(=O)N([C@@H](C)CO)C[C@@H]1C	-3.2	-4	-5	0.1	i
O=C(C[C@@H]1CC[C@@H]2[C@H](COC[C@@H](O)CN2C(=O)Nc2ccc(Cl)c(Cl)c2)O1)NCc1ccc(Cl)cc1	-1.4	-64	-77	-26	i
CNC[C@H]1Oc2c(NC(=O)Nc3ccc(C(F)(F)F)cc3)cccc2C(=O)N([C@H](C)CO)C[C@@H]1C	-1.3	-1	-2	2.2	i
C[C@@H]1CN([C@@H](C)CO)S(=O)(=O)c2ccc(C3=CCCC3)cc2O[C@@H]1CN(C)S(=O)(=O)c1cn(C)cn1	1.0	2	-2	0.6	i
C[C@H]1CN([C@@H](C)CO)C(=O)c2cccc(NC(=O)c3ccc(-c4nccs4)cc3)c2O[C@H]1CN(C)Cc1ccc(C(F)(F)F)cc1	2.5	-3	5	0.3	i
CO[C@H]1CN(C)C(=O)c2ccc(NS(=O)(=O)c3cccc(Cl)c3)cc2OC[C@H](C)NC[C@@H]1C	-4.1	2	-4	-2.3	i
C[C@H](CO)N1C[C@H](C)[C@@H](CN(C)C(=O)Nc2ccc(F)cc2)Oc2ccc(NS(=O)(=O)c3ccc(F)cc3)cc2C1=O	-4.6	0	1	-1.8	i
C[C@@H]1CN([C@@H](C)CO)S(=O)(=O)c2ccc(-c3cccnc3)cc2O[C@@H]1CN(C)Cc1ccncc1	2.8	-5	-9	-2.4	i
COCC(=O)Nc1ccc2c(c1)[C@H]1C[C@H](CC(=O)NCc3ccc(OC)cc3)O[C@H](CO)[C@H]1O2	-0.5	-1	-6	0.1	i
Cc1ccc(-c2cnc3c(c2)C(=O)N([C@H](C)CO)C[C@H](C)[C@H](CN(C)CC2CCOCC2)O3)cc1	-2.8	2	8	-3.5	i
C[C@H](CO)N1C[C@H](C)[C@@H](CN(C)S(=O)(=O)c2cn(C)cn2)Oc2ccc(NS(C)(=O)=O)cc2C1=O	-0.6	2	3	-1.4	i
COc1cccc(-c2ccc([C@H]3[C@@H](CO)N(C(C)=O)C34CN(C(C)=O)C4)cc2)c1	-1.4	-2	-3	-1.2	i
CCCNC(=O)N1CC2(C1)[C@H](c1ccccc1)[C@H](CO)N2C(=O)C1CC1	-2.4	2	6	-2.1	i
CO[C@H]1CN(C)C(=O)c2ccc(NS(=O)(=O)CC(F)(F)F)cc2OC[C@@H](C)N(C)C[C@H]1C	-2.1	3	5	-0.4	i
CCC(=O)N1CC2(C1)[C@H](c1ccc(-c3ccc(F)cc3)cc1)[C@@H](CO)N2S(C)(=O)=O	1.6	1	-5	-0.4	i
C[C@@H]1CN([C@H](C)CO)C(=O)c2cc(NC(=O)c3ccccc3)ccc2O[C@@H](C)CCCCO[C@H]1CN(C)S(=O)(=O)c1ccc(Cl)cc1	0.0	5	9	7.2	i
COCC#Cc1cnc2c(c1)C(=O)N([C@@H](C)CO)C[C@H](C)[C@@H](CN(C)C(=O)c1cccnc1)O2	-4.0	0	-6	-2.8	i
CCCNC(=O)C[C@@H]1CC[C@@H]2[C@H](COC[C@@H](O)CN2Cc2cccc(F)c2)O1	1.6	-1	1	-3.1	i
O=C(c1cccs1)N1C[C@@H](O)[C@H](n2cc(-c3ccc(F)cc3)nn2)C[C@@H]1c1ccc(Cl)cc1	-2.3	-14	-18	8.8	i
N#C[C@H]1[C@H](c2ccccc2-c2ccccc2F)[C@@H](CO)N1C(=O)C1CCC1	-1.9	-9	3	-0.7	+
C/C=C/c1ccc2c(c1)[C@H]1[C@H](CCN1S(=O)(=O)c1ccc(C)cc1)[C@H](CO)N2	-1.2	-9	0	-3.0	i
COc1ccc(S(=O)(=O)N2CCCCC2c2cc(C(=O)NC(C)C)no2)cc1 (configuration not stated)	-0.4	-2	-7	-9.4	i
CCCCCCCCC#Cc1nc(C)ccc1OC	-4.1	-19	-30	-6.6	i
COC(=O)C[C@H]1CC[C@H]2[C@H](COc3ccc(NC(=O)C4CC4)cc3C(=O)N2C)O1	-0.7	2	6	0.0	i
Cc1ccc(C(=O)NC2CCCCCCC2)cc1S(=O)(=O)N1CCOCC1	1.7	1	2	-2.6	i
C[C@@H]1CCCCO[C@H](CN(C)S(=O)(=O)c2cccs2)[C@@H](C)CN([C@H](C)CO)C(=O)c2cc(NC(=O)Nc3ccccc3)ccc2O1	-0.1	1	1	-2.0	i
CCCNC(=O)[C@@H]1[C@@H](CO)[C@@H]2Cn3c(ccc(-c4ccc(OC)cc4)c3=O)[C@@H]2N1CCC	-1.6	-5	-5	0.2	i
COc1ccc(S(=O)(=O)N(C)C[C@H]2OCCCC[C@H](C)Oc3ccc(NS(=O)(=O)c4cccs4)cc3C(=O)N([C@H](C)CO)C[C@H]2C)cc1	4.4	0	2	0.8	i
COCc1cn(CC[C@H]2CC[C@@H](NC(=O)Nc3ccccc3)[C@@H](CO)O2)nn1	-6.4	6	3	5.6	i
C[C@H]1CN([C@@H](C)CO)C(=O)c2cccc(NS(C)(=O)=O)c2O[C@H]1CN(C)Cc1ccc(Oc2ccccc2)cc1	0.7	-7	-21	1.4	i
COCC(=O)N1CC[C@@H]2[C@H]1c1cc(-c3cccc(OC)c3)ccc1N(C)[C@H]2CO	-2.5	1	6	1.4	i
Cc1ccccc1NC(=O)Cc1nc(COC(=O)c2nccnc2N)cs1	0.8	13	11	6.2	i
COCC#Cc1cnc2c(c1)C(=O)N([C@@H](C)CO)C[C@H](C)[C@@H](CN(C)C(=O)c1cnccn1)O2	-6.4	9	9	-3.5	i
N#C/C(=C/c1ccc(OC(=O)c2ccc(Br)s2)cc1)c1nc2ccccc2[nH]1	-0.7	-2	-1	4.5	i
COc1ccccc1S(=O)(=O)N(C)C[C@H]1Oc2cc(C#CCC(C)C)ccc2S(=O)(=O)N([C@@H](C)CO)C[C@@H]1C	2.9	1	7	-1.2	i
C[C@H](CO)N1C[C@H](C)[C@H](CN(C)Cc2ccc(C(=O)O)cc2)Oc2ccc(NC(=O)Nc3ccc4c(c3)OCO4)cc2CC1=O	-3.8	9	15	-0.1	i
Cc1noc(C)c1NC(=O)Nc1cccc2c1O[C@H](CN(C)C(=O)Nc1ccccc1)[C@@H](C)CN([C@@H](C)CO)C2=O	0.3	1	6	0.1	i
C[C@H]1CN([C@@H](C)CO)C(=O)c2cccc(N(C)C)c2O[C@@H]1CN(C)Cc1ccc(C(=O)O)cc1	-1.1	-3	1	-0.1	i
COc1ccc2c3c([nH]c2c1)[C@H](CO)N(S(=O)(=O)c1ccc(C)cc1)CC31CN(Cc2ccccc2)C1	8.7	-6	-32	-1.8	i
CC(Oc1ccccc1Cl)C(=O)Nc1ccc(S(=O)(=O)N2CCN(C)CC2)cc1 (configuration not stated)	-5.3	14	-2	-2.8	i
Cc1ccc(S(=O)(=O)N(C)C[C@@H]2Oc3ccc(NC(=O)Nc4ccc5c(c4)OCO5)cc3CC(=O)N([C@@H](C)CO)C[C@H]2C)cc1	4.5	-3	-1	-4.3	i
Cc1cc2cc3c(=O)[nH]c(=O)nc-3n(CC(O)C(O)C(O)CO)c2cc1C (configuration not stated)	1.1	17	18	-1.5	i
O=C(Nc1ccc2c(c1)[C@@H]1C[C@@H](CC(=O)N3CCCCC3)O[C@H](CO)[C@@H]1O2)C1CCC1	-1.3	2	6	-0.1	i
C[C@@H]1CN([C@H](C)CO)C(=O)c2cc(NS(=O)(=O)c3cccs3)ccc2O[C@@H](C)CCCCO[C@H]1CN(C)Cc1ccc(C(F)(F)F)cc1	6.0	-19	-45	16	i
C[C@@H](NC(=O)C[C@H]1C[C@H]2c3cc(NC(=O)Nc4ccccc4F)ccc3O[C@H]2[C@@H](CO)O1)c1ccccc1	-1.9	0	3	0.5	i
C[C@H]1CN([C@@H](C)CO)S(=O)(=O)c2ccc(-c3cccnc3)cc2O[C@H]1CN(C)CC1CCOCC1	-2.0	7	18	-2.1	i

Later entries:
SMILES	MLL AF4-AF9 inh	rRNA inh HTS	rRNA inh HTS OD600	rRNA inh HTS RFP	FGF22 binding
N#C[C@@H]1[C@H](c2ccc(C3=CCCCC3)cc2)[C@@H](CO)N1C(=O)CN1CCOCC1	6.8	6	-10	3.7	i
Cc1cccc(S(=O)(=O)N(C)C[C@H]2OCc3cnnn3CCCC(=O)N([C@@H](C)CO)C[C@H]2C)c1	0.2&0.8	-1&-2	12&-6	-2.3&2.0	i
C[C@H](CO)N1C[C@H](C)[C@H](CN(C)S(=O)(=O)c2cccs2)Oc2c(NS(=O)(=O)c3ccc(Cl)cc3)cccc2C1=O	2.7	-5	-6	3.4	i
COc1cccc(C#Cc2ccc3c(c2)O[C@H](CN(C)C)[C@H](C)CN([C@@H](C)CO)S3(=O)=O)c1	8.4	7	12	1.4	i
O=C(C[C@H]1C[C@H]2c3cc(NC(=O)C4CCOCC4)ccc3O[C@H]2[C@H](CO)O1)NCCN1CCCCC1	-1.1	3	5	-1.4	i
C[C@@H]1CN([C@H](C)CO)C(=O)c2cccc(NC(=O)C3CCOCC3)c2O[C@H]1CN(C)CC1CCCCC1	0.2	-8	-14	-2.0	i
CC(C)(C)OC(=O)N(CCc1ccccc1)Cc1ccc(OCc2cccc(NC(=O)/C=C/c3ccccc3)c2)cc1	-2.8	13	19	-2.3	i
C/C=C/c1cnc2c(c1)C(=O)N([C@@H](C)CO)C[C@@H](C)[C@@H](CN(C)Cc1ccc3c(c1)OCO3)O2	-2.3	6	2	-1.4	i
Cc1cnc(C=NNC(N)=S)c2cccc(N)c12	2.3	7	12	-0.2	i
COc1cc(/C=N/NC(=O)c2nnn(-c3nonc3N)c2C)ccc1OCc1ccc(Cl)cc1	0.4	0	6	-0.1	i
O=C(CC(=O)NN=Cc1ccc2c(c1)CCC2)NN=Cc1ccc2c(c1)CCC2	-4.1	-2	-4	0.6	i
CCCNC(=O)N1[C@@H](C#N)[C@@H](c2ccc(-c3cccc(OC)c3)cc2)[C@@H]1CO	0.7	3	-23	0.6	i
Cc1cc(C(=O)N2CCC2(C)C(=O)Nc2cccc3ccccc23)nn1C (configuration not stated)	-0.6	8	14	1.3	i
CCOc1ncccc1C(=O)OCC(=O)Nc1ccc2c(c1)OCCO2	-0.5	-18	-15	-1.8	i
C[C@H](CO)N1C[C@H](C)[C@H](CN(C)S(=O)(=O)c2cccs2)Oc2ccc(NS(=O)(=O)c3cn(C)cn3)cc2CC1=O	4.3	3	4	1.3	i
CN(C)C(=O)C[C@H]1CC[C@H](NS(=O)(=O)c2ccccc2)[C@H](CO)O1	-14	2	8	3.2	i
C=C1C(=O)[C@]23C[C@H]1CCC2[C@]1(C)C(=O)CC[C@@](C)(C(=O)O)C1C[C@@H]3O (some centres not stated)	-3.6	1	8	-1.5	i
C[C@H](CO)N1C[C@H](C)[C@@H](CN(C)C(=O)Nc2ccc(F)cc2)Oc2ccc(NS(=O)(=O)c3ccc(F)cc3)cc2CC1=O	-0.9	-1	1	-1.3	i

Grouped by structure: the compounds so far containing a COOH group.
SMILES	MLL AF4-AF9 inh	rRNA inh HTS	rRNA inh HTS OD600	rRNA inh HTS RFP	FGF22 binding
C[C@H](CO)N1C[C@H](C)[C@H](CN(C)Cc2ccc(C(=O)O)cc2)Oc2ccc(NC(=O)Nc3ccc4c(c3)OCO4)cc2CC1=O	-3.8	9	15	-0.1	i
C[C@H]1CN([C@@H](C)CO)C(=O)c2cccc(N(C)C)c2O[C@@H]1CN(C)Cc1ccc(C(=O)O)cc1	-1.1	-3	1	-0.1	i
C=C1C(=O)[C@]23C[C@H]1CCC2[C@]1(C)C(=O)CC[C@@](C)(C(=O)O)C1C[C@@H]3O (some centres not stated)	-3.6	1	8	-1.5	i

3 compounds from above, reduced to rRNA inh HTS OD600 and FGF22 binding.
| Structure | rRNA inh HTS OD600 | FGF22 binding |
| --- | --- | --- |
| C[C@H](CO)N1C[C@H](C)[C@@H](CN(C)C(=O)Nc2ccc(F)cc2)Oc2ccc(NS(=O)(=O)c3ccc(F)cc3)cc2C1=O | 1 | i |
| C[C@@H]1CN([C@@H](C)CO)S(=O)(=O)c2ccc(-c3cccnc3)cc2O[C@@H]1CN(C)Cc1ccncc1 | -9 | i |
| COCC(=O)Nc1ccc2c(c1)[C@H]1C[C@H](CC(=O)NCc3ccc(OC)cc3)O[C@H](CO)[C@H]1O2 | -6 | i |
